# Assay outcomes (PubChem)
# LANA-nucl inh: LANA-nucleosome interaction inhibition | FITC-LANA1-23 / chicken nucleosome fluorescence polarization; active compounds read low | z-score (concentration not given with the values) | 51,000 compounds, 0.3% hits;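 active = both repeat wells score below -2 in polarization z-score versus plate sample wells, excluding overly bright wells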;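 note: 100 nL library stock added to about 30 µL; numbers are from one replicate; some results filed as inactive read as strong as hits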
#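 test system = FITC-LANA peptide and chicken nucleosomes | amount = 240 nM purified chicken nucleosomes (480 nM peptide binding sites), final | reagent = 50 nM FITC-LANA1-23 probe | medium = TEN-BT buffer, pH 7.5 | doses = single compound addition by pin transfer, 100 nL per well | timing = 10–45 min, room temperature | detection = fluorescence polarization | repeats = duplicate plates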
# Ab BasE inh: inhibitors of Acinetobacter baumannii siderophore enzyme BasE. purified BasE, fluorescence polarization binding displacement. inhibition, % (test concentration not listed). 84,000 compounds, 0.1% hits. AID 485350;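 active = both replicates above 25% with normal brightness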;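 note: 0% = negative plate control signal and 100% = positive plate control signal; stock transfer was 100 nL into about 30 µL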
# Numbers without * were called inactive; · = not tested or not shown.
compound	LANA-nucl inh	Ab BasE inh
O=C(NNC1=NCCCCC1)c1ccc(Br)cc1	-0.32	1.3
CCCC(=O)Nc1cc(-c2nnc(OC)c3ccccc23)ccc1N1CCOCC1	0.53	-1.5
COC(=O)c1cccc(S(=O)(=O)N2CCC(NC(=O)Nc3cccc(F)c3)CC2)c1	-0.4	1.9
O=C(COC(=O)c1ccccc1)Nc1cccc2nsnc12	·	1.8
CCOC(=O)N1CCN(C(=O)c2ccc(N3CCCCC3)c(NC(=O)Nc3ccc(Cl)c(Cl)c3)c2)CC1	0.076	-1.1
O=C1CN(C(=O)c2ccc(Cl)c(S(=O)(=O)N3CCCCCC3)c2)c2ccccc2N1	·	0.7
C=CCNC(=O)c1c(C)cc(C)cc1C	·	1.2
CCn1cc(C(=O)OCC(=O)N2CCCC(C)C2)c(=O)c2ccc(C)nc21 (stereo not given)	-0.28	0.1
CCC1=C(c2ccc(C)cc2)S(=O)(=O)N=C1N1CCC(C(=O)N(C)Cc2ccco2)CC1	-0.66	-0.3
Cc1ccc(C)n1-c1sccc1C(=O)N1CCN(S(=O)(=O)c2cccc(F)c2)CC1	·	2.4
O=C(N/N=C1\CCc2ccccc21)c1ccccn1	·	0.4
O=C(NCCNC1CCCC1)c1ccco1	-0.71	0.4
CC1=C(C(=O)Nc2ccccc2)C(c2ccccc2)n2c(s/c(=C\c3cccs3)c2=O)=N1 (stereo not given)	·	3.8
N#C/C(=C\c1ccc(OCC(N)=O)cc1)c1ccccc1	0.005	-1.2
COc1cc(C(=O)N(Cc2ccco2)Cc2ccccc2F)cc(OC)c1OC	1.2	1.9
O=C1/C(=C/c2cccs2)CCCc2ccccc21	0.55	-2.1
C=CCN(CC=C)C(=O)CSc1nc(N)cc(N)n1	·	-0.6
COc1ccc(CCC(=O)CCc2ccc(OC)cc2)cc1	·	-1.2
CCc1ccc(S(=O)(=O)NC2CCCCNC2=O)cc1 (stereo not given)	·	0.6
NC(=O)c1ccccc1NC(=O)C1SC(=Nc2cccc(Cl)c2)C(C(=O)NCc2ccco2)=C1N (stereo not given)	·	1.6
CCc1cccc(CC)c1NC(=O)c1c(Cl)nc2sccn12	·	-4.7
Cc1noc(C)c1C(=O)OCC(=O)NCC12CC3CC(CC(C3)C1)C2	·	1.4
COc1cc(CNc2nn[nH]n2)cc(Br)c1OCc1ccc(Cl)cc1	-0.74	0.4
CC(C)c1cccc(C(C)C)c1OCCOCCN1CCNCC1	-1.4	1.4
O=C(CN(C1CCCCC1)S(=O)(=O)c1ccccc1)NCc1ccco1	-0.44	-0.4
O=C1OC(Oc2cccc3cccnc23)(c2ccccc2)c2ccccc21 (stereo not given)	·	4.1
COc1ccc2nc(C)cc(NCC3CCCO3)c2c1 (stereo not given)	·	1.2
CN(Cc1ccccc1)C(=O)CN(c1cccc(F)c1)S(C)(=O)=O	-0.95	0.2
COC(=O)C(NC(=O)c1ccc(S(=O)(=O)N2CCOCC2)cc1)C(C)C (stereo not given)	·	2.2
CCN(Cc1ccc(/C=C2\C(=O)Nc3ccccc32)o1)S(C)(=O)=O	-1.4	-0.7
Cn1ncc(C(=O)O)c1C(F)(F)F	·	4.0
C/C(=N\NC(=O)CSc1nnc(SCc2ccccc2)s1)c1ccco1	-0.1	3.0
CC(C)(CNC(=O)/C=C/c1ccc(Br)cc1)N1CCOCC1	·	-0.4
COc1ccc2c(c1)CCCN2C(N)=O	0.49	-1.9
Cc1cccc(C(=O)Nc2cc(-c3ccccc3)no2)c1	-0.35	0.7
CC(C)N=Cc1c(Cl)nc2sccn12	-0.77	·
CN(C)C(=O)c1ccc(N)cc1	·	1.3
Cc1nc2ccccc2nc1Oc1ccc(Cl)c(F)c1	-1.4	·
Cc1cc(C(=O)CN2c3cccc4cccc(c34)S2(=O)=O)c(C)n1C	·	-2.2
CCS(=O)(=O)Nc1cc2c3c(n(S(=O)(=O)CC)c2cc1C)CCC3	-0.95	-1.1
CCOC(=O)CN1C(=O)S/C(=C/c2cn(CC(N)=O)c3ccccc23)C1=O	0.27	-0.9
COCCNC(=O)Nc1ccc(F)cc1	-0.63	2.7
FC1(F)C2C3C=CC(O3)C2C1(F)F (stereo not given)	-1.8	1.8
Cc1nn(C)c(C)c1/C=N/NS(=O)(=O)c1ccccc1	·	0.6
CC(C)c1nc2ccc(N)cc2s1	0.51	3.4
CN(C)c1nc(-c2ccccc2O)nc2ccccc12	0.75	1.0
COc1ccc(OCC(O)CNS(=O)(=O)c2ccc(-c3ccccn3)s2)cc1 (stereo not given)	0.47	-0.5
Cc1cccc(OCC(=O)Nc2ccc(S(N)(=O)=O)cc2)c1C	0.36	4.6
CCN(C(=O)Cn1cnc2sccc2c1=O)C1CCS(=O)(=O)C1 (stereo not given)	·	-1.2
Cc1ccc(N/N=C2/CCc3ccccc3C2=O)cc1	0.39	0.7
COc1ccc(CNC(=O)CCCn2c(=O)oc3ccccc32)cc1	·	-6.0
CCn1nc(C)c(/C=N/NC(=O)c2cc(C3CC3)nc3ccccc23)c1C	0.51	-1.8
CC(Sc1ncccn1)C(=O)N/N=C/c1ccccc1Cl (stereo not given)	-0.16	-2.5
COc1ccc(C2OCC(CN3CCCCC3)O2)cc1 (stereo not given)	-0.79	2.1
O=C(OCn1nnc2ccccc2c1=O)c1ccccc1	-0.029	0.7
CCCCC(CC)C(=O)Nc1ccc(S(=O)(=O)N2CCCCC2)cc1 (stereo not given)	-0.75	-1.0
COc1ccc2cc3cc(C(=O)NCCCN4CCC(C)CC4)oc3nc2c1	-0.63	-2.5
CS(=O)(=O)CCOC(=O)c1cccc(Br)c1	·	0.7
Cn1nc(CC(=O)Nc2ccc(-c3nnc4n3CCCCC4)cc2)c2ccccc2c1=O	·	-5.9
CC1CCCCN1S(=O)(=O)c1ccc(NC(=O)c2cnccn2)cc1 (stereo not given)	0.92	-0.3

# Continued.
compound	LANA-nucl inh	Ab BasE inh
Cc1ccc2c(c1)sc1nc(-c3ccccc3Cl)cn12	1.1	1.3
CCOc1ccc(NC(=O)CC2(CC(=O)O)CCCC2)cc1	·	1.5
COc1cc(C(=O)N(CCC#N)C2CC(C)CC(C)(C)C2)cc(OC)c1OC (stereo not given)	·	2.4
CCOP(=O)(CC)CC(=O)O (stereo not given)	0.68	2.9
O=C(O)C1CCN(c2ncnc3ccccc23)CC1	0.47	-2.6
Cn1c(CNC(=O)C2CCCCC2)cc2cc(Cl)ccc21	1.7	·
CCCCOc1ccc(-c2nnc(-c3ccco3)n2-c2ccccc2)cc1	-1.4	1.9
Cc1cccc(C(=O)NCC(=O)N(C)Cc2nc3ccccc3c(=O)[nH]2)c1	·	1.6
O=c1c(Cl)c[nH]n(-c2ccccc2)c1=O	0.14	-1.9
COc1cccc(C2(O)CCN(C(=O)c3cccs3)CC2)c1	0.48	-0.4
C=C(C)c1cccc(C(C)(C)NC(=O)NCCc2ccc(F)cc2)c1	·	0.9
COC(=O)c1c(C)n(S(C)(=O)=O)c2ccc(N(C(C)=O)S(C)(=O)=O)cc12	-0.13	-0.2
CC(Sc1nnc(-c2ccco2)o1)C(=O)NC1CCCC1 (stereo not given)	·	-0.2
CC(=O)Nc1ccc(OCc2cn3cc(C)ccc3n2)cc1	·	-1.1
COc1cc(/C=C/C(=O)N2CCC=CC2=O)cc(OC)c1OC	0.16	0.4
C(=C\c1ccccc1)/CN1CCN(c2ccccc2)CC1	0.31	1.7
COc1cccc(N2C(=O)CC(c3c[nH]c4ccccc34)C2=O)c1 (stereo not given)	-0.14	-1.2
Cn1nc(C2CC2)cc1NC(=O)Nc1csc2ccccc12	-0.51	-2.1
COc1cccc(NC(=O)NCCN2CCN=C2C)c1	·	-2.0
O=C(N/N=C1\CCS(=O)(=O)c2ccc(F)cc21)c1ccc2c(c1)OCO2	·	-0.1
O=C(/C=C/c1cn(-c2ccccc2)nc1-c1ccc(F)cc1)N1CCN(C2CCS(=O)(=O)C2)CC1 (stereo not given)	·	-0.1
CCOC(=O)c1oc2ccc(S(=O)(=O)Nc3noc4ccccc34)cc2c1C	-0.42	-4.5
Cc1cc2ncn(S(=O)(=O)c3ccc(S(=O)(=O)NC4CCCCC4)cc3)c2cc1C	0.82	-1.2
O=C(CCCC(=O)Nc1nccs1)Nc1nccs1	-0.54	2.4
CC1=C(C#N)C(c2cccnc2)C(C#N)=C(C)N1	·	1.3
Cc1ccc(O)c(C2=NNC(O)(C(F)(F)F)C2)c1 (stereo not given)	0.85	1.2
Cc1nn(Cc2nnc(SCc3c(Cl)cccc3Cl)o2)c(C)c1Br	·	2.6
C=CCN1CN=C(NS(=O)(=O)c2ccc(NC(C)=O)cc2)NC1	-0.88	-1.1
c1ccc(-c2csc3ncnc(NCCCn4ccnc4)c23)cc1	·	0.6
COc1ccc(O)c(CN(C)CCN(C)C)c1	1.8	-3.6

# An excerpt of these results, with values under each structure.
# Every second line gives: LANA-nucl inh | Ab BasE inh
O=C(/C=C/c1cn(-c2ccccc2)nc1-c1ccc(F)cc1)N1CCN(C2CCS(=O)(=O)C2)CC1 (stereo not given)
 : · | -0.1
Cc1nn(Cc2nnc(SCc3c(Cl)cccc3Cl)o2)c(C)c1Br
 : · | 2.6
COc1ccc(O)c(CN(C)CCN(C)C)c1
 : 1.8 | -3.6
O=C(N/N=C1\CCS(=O)(=O)c2ccc(F)cc21)c1ccc2c(c1)OCO2
 : · | -0.1

# (more compounds)
compound	LANA-nucl inh	Ab BasE inh
O=C(Oc1ccc2c(c1)OCO2)C1CCCCN1S(=O)(=O)c1ccccc1 (stereo not given)	·	-1.4
COc1ccc(C2SCCN2C(=S)Nc2cccc(C(F)(F)F)c2)cc1 (stereo not given)	·	2.1
C/C(=N\NC(=O)NC1CCCCC1)c1ccc2c(c1)OCO2	·	0.6
COc1ccc(CN(C)C(=O)C2CC(=O)N(c3ccc4c(c3)OCCO4)C2)c(OC)c1 (stereo not given)	·	0.3
COc1ccc(S(=O)(=O)N2CCC(C(=O)N3CCCCCC3)CC2)cc1C	-0.067	0.3
CC(C)(C)c1nnc(Nc2ccc(Nc3ccccc3)cc2)[nH]c1=O	-0.15	-2.0
O=C(Nc1ccnn1Cc1ccccn1)c1cccnc1Oc1ccccc1	·	2.3
Cc1ccc(Cl)cc1NC(=O)CC(O)(C(F)(F)F)C(F)(F)F	-0.71	0.2
C1CCOC2(CCC3(CC2)OCCCCO3)OC1	-1.1	1.7
CCOc1ccc(OCCSc2nc3ccccc3n2Cc2ccccc2)cc1	·	1.9
O=C1c2ccccc2C(=O)N1CN1CCC(O)(c2ccc(Cl)cc2)CC1	·	0.5
O=c1cc(-c2ccc(O)cc2)oc2c(C3O[C@H](CO)[C@@H](O)[C@H](O)[C@H]3O)c(O)cc(O)c12 (stereo not given in full)	0.099	2.8
CCCn1c(SCC(=O)OC(C)(C)C)n[nH]c1=O	·	1.9
Nc1cccc2c1C(=O)N(CC(=O)NC13CC4CC(CC(C4)C1)C3)C2=O	·	1.4
COC(=O)c1ccc2c(=O)n(NC(C)=O)c(=S)[nH]c2c1	-0.061	3.5
CC1(C)Cc2ccccc2C(N/N=C/c2ccco2)=N1	0.34	1.3
Cc1c(C(=O)c2ccccc2)c(=O)n(C)c(=O)n1C	-0.09	-0.5
COc1ccc2c(C#N)c3ccccn3c2c1	-0.44	·
Cn1c2ccc(F)cc2c2nc3n(c(=O)c21)CCS3	2.4	-3.4
C/C=C/C(=O)Nc1ccccc1OC	0.059	-1.6
N#CCCn1c(SCc2csc(-c3ccccc3)n2)nc2ccccc21	·	-6.2
O=C1CNC(=O)/C1=C\c1ccc(O)cc1	·	-1.1
COc1ccc2cc(C#N)c(=S)[nH]c2c1	-0.28	-0.3
CCOc1ccc(S(=O)(=O)Nc2ccccc2C(=O)Nc2nn[nH]n2)cc1	·	0.7
COc1ccc(-c2cc(=O)c3ccc(OC)cc3o2)cc1	0.045	0.3
NC(CC(=O)O)c1ccc2c(c1)OCO2 (stereo not given)	-0.43	1.2
O=C(c1ccccc1)C(Sc1nc2ccccc2[nH]1)c1ccccc1 (stereo not given)	·	-0.9
Cc1cc(C)nc(NC(=S)c2ccc(NC(=O)/C=C/C(=O)O)cc2)n1	·	1.1
CCn1c2ccccc2c2cc(C3C(C#N)=C(N)Oc4n[nH]c(C(C)C)c43)ccc21 (stereo not given)	-0.3	0.0
CC(=O)N1CCC(O)(c2ccc3c(c2)OCO3)CC1	0.28	1.2
CC1CCCN(C(=O)COC(=O)c2cc(S(=O)(=O)N3CCCC3)ccc2O)C1 (stereo not given)	·	-1.6
CCN(CC)c1ccc(C(=O)c2ccc(N(CC)CC)cc2)cc1	-0.5	1.2

# Compound profiles (already shown). Values in the order: LANA-nucl inh | Ab BasE inh
# Listed for Cn1c2ccc(F)cc2c2nc3n(c(=O)c21)CCS3 : 2.4 | -3.4
# Listed for C/C=C/C(=O)Nc1ccccc1OC : 0.059 | -1.6

# Rewritten as labelled records: 2 of the compounds above
> O=C1CNC(=O)/C1=C\c1ccc(O)cc1
- LANA-nucl inh: ·
- Ab BasE inh: -1.1
> COc1ccc2cc(C#N)c(=S)[nH]c2c1
- LANA-nucl inh: -0.28
- Ab BasE inh: -0.3

# These rows are one share of the data. The share of hits here may be higher or lower than overall.
